GALR2 agonist: activates the human galanin receptor 2 | O43603 | activation, %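 (tested at 5 µM)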 | hit rate 0.48% among 140,000 | GALR2-expressing cells, agonist activation read-out | AID 803;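 active = above mean plus 3 SD of all compounds, about 5% in these data, not always enough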;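 note: 0% = vehicle buffer wells and 100% = reference agonist at full effect; tested in CHO reporter cells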
Target sequence (O43603 whole entry, looked up): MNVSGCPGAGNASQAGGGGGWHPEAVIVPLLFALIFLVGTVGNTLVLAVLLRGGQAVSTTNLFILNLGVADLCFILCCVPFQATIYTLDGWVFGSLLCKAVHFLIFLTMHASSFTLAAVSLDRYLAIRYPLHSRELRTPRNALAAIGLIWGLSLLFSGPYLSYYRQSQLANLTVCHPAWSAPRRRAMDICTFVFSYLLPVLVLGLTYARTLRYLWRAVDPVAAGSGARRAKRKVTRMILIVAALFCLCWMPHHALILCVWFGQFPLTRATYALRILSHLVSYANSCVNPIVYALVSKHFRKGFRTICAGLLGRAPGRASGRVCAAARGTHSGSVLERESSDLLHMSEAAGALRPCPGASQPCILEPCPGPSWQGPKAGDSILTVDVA
Insulin prom inh: TRM-6 insulin promoter activity inhibition. TRM-6 cells (human fetal islet line), insulin promoter-eGFP reporter, imaging; reporter expression induced with tamoxifen. inhibition, % at 2 µM. hit rate 0.9% among 130,000. AID 1273;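 active = inhibition above the mean plus 3 SD, with well images judged a real hit on visual review, cut at about 60% in these data, passing the limit was not always enough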
RGS16-Gao: RGS16-Galphao interaction regulator (human); bead-based flow cytometry RGS16-Galphao binding, fluorescence; actives lie on both sides; binding response (% of control), % at 10 µM; hit rate 0.38% among 220,000; AID 1441;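 active = below 25% or above 175%, edge rows of some plates excepted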;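 note: Galphao activated by GDP with aluminum fluoride before binding; 100% = wells without compound and 0% = beads without RGS; some results beyond the cut were filed as inactive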
Target sequence (O15492 whole entry, looked up): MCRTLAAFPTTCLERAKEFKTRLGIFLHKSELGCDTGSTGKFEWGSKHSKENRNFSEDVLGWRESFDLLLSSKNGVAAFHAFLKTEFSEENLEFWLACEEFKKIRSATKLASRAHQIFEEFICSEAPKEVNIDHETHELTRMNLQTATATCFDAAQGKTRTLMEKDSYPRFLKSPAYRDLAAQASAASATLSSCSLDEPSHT
Target sequence (P09471 whole entry, looked up): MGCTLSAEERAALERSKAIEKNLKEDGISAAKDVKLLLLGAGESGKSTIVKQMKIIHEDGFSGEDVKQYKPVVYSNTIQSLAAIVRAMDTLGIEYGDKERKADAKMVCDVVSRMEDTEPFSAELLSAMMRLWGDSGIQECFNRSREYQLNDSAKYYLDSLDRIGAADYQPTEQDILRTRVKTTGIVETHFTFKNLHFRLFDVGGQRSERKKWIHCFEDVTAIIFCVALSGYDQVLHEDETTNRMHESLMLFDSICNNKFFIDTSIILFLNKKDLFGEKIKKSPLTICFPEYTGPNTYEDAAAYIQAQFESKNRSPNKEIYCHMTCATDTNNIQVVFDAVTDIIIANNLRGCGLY
PKD1 inh: inhibitors of human PKD1 kinase | Q15139 | PKD1 kinase fluorescence polarization assay | inhibition, %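 (about 10 µM by stock and volumes)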 | hit rate 0.056% among 200,000;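 active = inhibition of 50% or more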;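 note: controls were vehicle for no effect and a reference inhibitor for full effect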
HSV replic up: HSV replication enhancement; HSV replication augmentation in cells, fold increase; maximum fold increase; hit rate 0.005% among 220,000;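 active = peak rise of 1.5-fold or more in the series; tested in PC3 cells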;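 note: first round at 10 µM; read as green reporter fluorescence; hits show the peak of a series up to 25 µM; 1 = signal of infected wells without compound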
Insulin prom inh cell count: recorded beside Insulin prom inh, whose call it bears; normalized cell count, %; measured here: cell count, toxicity; reference of the scale not given here;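 cells exposed to compound for 48 h; stained nuclei by imaging scaled within each plate; lower means fewer cells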
HSV replic up primary fold: further read-out of HSV replic up, marked with its call; fold increase; compound at 10 µM; measured here: primary screen fold increase 10 uM; tested in PC3 cells;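 GFP signal in the first replicate; 1 = infected wells without compound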
* marks the source's active call; other numbers are inactive results; i = inactive; . = not tested or not shown.

SMILES | GALR2 agonist | Insulin prom inh | Insulin prom inh cell count | RGS16-Gao | PKD1 inh | HSV replic up | HSV replic up primary fold
Cc1ccc2c(CC(=O)Nc3nc(C)cs3)coc2c1 | -0.1 | 54 | 82 | 107 | 4 | i | 0.98
O=C(Cn1ccc2ccccc2c1=O)N1CCN(Cc2ccc3c(c2)OCO3)CC1 | -5.3 | . | . | 98 | -15 | i | 0.91
O=C(NCc1nnc(SCC(=O)N2CCCC2)o1)c1ccco1 | . | 9 | 157 | 95 | -3 | i | 1
CSc1nc2c(c(=O)[nH]1)C(c1ccc(F)cc1)CC(=O)N2 (configuration not stated) | . | 45 | 154 | 101 | 2 | i | 0.88
COc1ccc(OC)c(NC(=O)c2ccno2)c1 | . | 57 | 90 | 100 | 11 | i | 0.98
Cc1c2cnn(CC(=O)Nc3c(F)c(F)cc(F)c3F)c(=O)c2c(C)n1Cc1ccccc1F | . | 0 | 129 | 92 | -9 | i | 1.1
Nc1nnc(SCC(=O)OCC(=O)Nc2ccccc2F)s1 | . | 33 | 173 | 119 | -8 | i | 0.97
COc1ccc(-n2c(=S)[nH]c3sc(-c4ccccc4)cc3c2=O)c(OC)c1 | . | . | . | 102 | . | i | 1
Cc1nnc(SCCC#N)n(CCC#N)c1=O | -1.0 | 35 | 125 | 84 | -13 | i | 0.91
CC(=O)N1CCc2ccc(S(=O)(=O)N3CC(C)OC(C)C3)cc21 (configuration not stated) | -1.6 | . | . | 94 | -11 | i | 0.98
Cc1cc(C)nc(NC(=O)c2cccs2)n1 | . | . | . | 98 | . | i | 1
CC(C)(C)c1ccc(N2C(=O)CC(C/C=C/c3ccccc3)C2=O)cc1 (configuration not stated) | . | . | . | 103 | . | i | 1
COCCCNC(=O)c1cccs1 | -2.7 | -29 | 160 | 99 | -2 | i | 0.98
CC(C)NC(=O)Cn1c(=O)c2c(ncn2Cc2ccccc2)n(Cc2ccccc2)c1=O | -0.3 | 6 | 68 | 107 | -5 | i | 1.1
C[C@H](NC(=O)OCc1ccccc1)C(=O)NNC(=O)[C@H](C)NC(=O)OCc1ccccc1 | . | . | . | 98 | . | i | 0.78
CC(C)c1ccccc1NC(=O)c1ccccc1NC(=O)C1CCCCC1 | -1.7 | -23 | 93 | 104 | -13 | i | 0.95
Cc1ccc(Cn2c(=O)c3c(nc4n3CCCN4Cc3ccccc3)n(C)c2=O)cc1 | -3.4 | 25 | 93 | 108 | -10 | i | 0.91
O=C(NCc1cccnc1)c1ccc(=O)oc1 | -1.9 | -133 | 80 | 97 | -5 | i | 0.84
CCOC(=O)c1c(NCC(C)C)c2ccccc2[nH]c1=O | -0.4 | 11 | 142 | 98 | 4 | i | 0.88
CCCc1nc(SCC(=O)c2ccccc2)c2c(=O)n(C)c(=O)n(C)c2n1 | -2.1 | . | . | 99 | -4 | i | 0.81
COc1ccc(C(=O)O)cc1S(=O)(=O)N(CCc1ccccc1)Cc1ccccc1 | . | . | . | 96 | . | i | 0.99
O=C1NC(=O)C(c2cn(-c3ccccc3)nc2-c2ccc(F)cc2)N1 (configuration not stated) | -3.1 | 11 | 123 | 100 | -7 | i | 0.85
CC(C)(NO)/C(=N\O)c1ccccc1 | -0.8 | 39 | 77 | 109 | -3 | i | 1.2
COc1ccc(C(=O)NCC(=O)N/N=C(C)\C=C\c2ccccc2)cc1OC | . | . | . | 91 | -7 | i | 0.96

Reprinted at random: two compounds from above
SMILES | GALR2 agonist | Insulin prom inh | Insulin prom inh cell count | RGS16-Gao | PKD1 inh | HSV replic up | HSV replic up primary fold
O=C1NC(=O)C(c2cn(-c3ccccc3)nc2-c2ccc(F)cc2)N1 (configuration not stated) | -3.1 | 11 | 123 | 100 | -7 | i | 0.85
CC(C)NC(=O)Cn1c(=O)c2c(ncn2Cc2ccccc2)n(Cc2ccccc2)c1=O | -0.3 | 6 | 68 | 107 | -5 | i | 1.1

Next section
SMILES | GALR2 agonist | Insulin prom inh | Insulin prom inh cell count | RGS16-Gao | PKD1 inh | HSV replic up | HSV replic up primary fold
CCOc1ccc2oc(-c3ccccc3)c(C(=O)N3CCN(CCO)CC3)c2c1 | -0.6 | -170 | 114 | 96 | -14 | i | 0.95
COc1ccc(Cc2n[nH]c(=S)n2C)cc1Br | . | 43 | 119 | 93 | -4 | i | 0.83
CCOC(=O)C1=C(C)NC2=C(C(=O)CCC2)C1c1cn(Cc2ccc(Cl)cc2Cl)nc1-c1ccccc1 (configuration not stated) | 2.2 | . | . | 104 | -10 | . | .
CO/N=C(\CS(=O)(=O)Cc1ccc(OC)cc1)c1ccc(Cl)cc1 | -3.1 | 0 | 98 | 101 | 1 | i | 1.2
Cc1ccccc1C(=O)N1CCN(c2ccc(NC(=O)CSc3ccc(Cl)cc3)cc2)CC1 | -3.5 | 46 | 55 | 102 | 4 | i | 0.76
COc1ccc(-n2nc3c(c2NC(=O)C2CC2)CS(=O)C3)cc1 (configuration not stated) | -1.5 | -205 | 92 | 100 | -5 | . | .
O=C(N/C(=C/c1ccco1)C(=O)N1CCCCC1)c1cccs1 | -3.1 | -22 | 171 | 69 | -9 | i | 1.2
Cc1cc(C)cc(Oc2coc3cc(OC(=O)c4cccs4)ccc3c2=O)c1 | -3.2 | . | . | 104 | 4 | i | 1.1
CS(=O)(=O)N1CCC(c2noc(-c3ccc(C(F)(F)F)cc3)n2)CC1 | -0.9 | -11 | 95 | 86 | -13 | i | 0.96
O=C(N/N=C/c1cccc(F)c1)c1csc2c1CCCC2 | -2.1 | -3 | 127 | 105 | -6 | i | 0.76
COCc1cc(=O)oc2cc(NS(=O)(=O)c3ccc(C)cc3)ccc12 | . | . | . | 99 | . | i | 1.1
Cc1cccc(-c2noc(CN(C(=O)CCc3ccccc3)C(C)C)n2)c1 | -1.5 | 41 | 116 | 102 | -3 | i | 0.87
CN(C)c1ccc(/C=N/NC(=O)c2ccc(CN3CCOCC3)cc2)cc1Br | . | . | . | 103 | -3 | i | 1
COc1ccc(CCNC(=S)Nc2cc(C)cc(C)c2)cc1 | -1.3 | -48 | 78 | 104 | -1 | i | 1.1
Cc1ccc(-c2nc3sc(C(N)=O)c(N)c3c3c2CCCC3)cc1 | 0.6 | . | . | 104 | 10 | i | 0.93
COc1ccccc1C(=O)NCC(=O)N/N=C/c1cc(Br)ccc1OC(=O)/C=C\c1ccco1 | 0.3 | -63 | 51 | 112 | -5 | i | 0.62
CCOC(=O)C(=O)NC(C)CCc1ccccc1 (configuration not stated) | -0.1 | 7 | 152 | 100 | -9 | i | 0.93
CC1OC(Nc2cccc3ccccc23)C(O)C(O)C1O (configuration not stated) | -1.7 | -55 | 45 | 83 | 1 | i | 0.98
CCCCN(C)C(=O)c1cn(CC)c2nc(C)ccc2c1=O | -0.2 | -29 | 44 | 102 | -2 | i | 0.93
Cc1ccc(S(=O)(=O)N/N=C/C(C)(C)CO)cc1 | -2.8 | 15 | 150 | 103 | -15 | i | 0.96
COC(=O)c1ccccc1OCCN1CCCCCC1 | . | -76 | 53 | 106 | -8 | i | 1.1
CCCS(=O)(=O)NCc1ccc2c(c1)cc(C)n2C | 0.0 | 26 | 129 | 95 | -6 | i | 0.92
O=C(NCCc1cn2ccsc2n1)c1cccs1 | -3.1 | . | . | 101 | 2 | i | 0.94
O=[N+]([O-])c1ccc(Cl)c(/C=N/Nc2nc(N3CCOCC3)nc(N3CCOCC3)n2)c1 | -1.7 | -7 | 87 | 21 | -6 | i | 0.8
O=C(Nc1nnc(SCc2ccc(Cl)cc2)s1)c1ccco1 | 0.6 | -20 | 103 | 105 | -27 | i | 0.94
Cc1cc(C(=O)N2CCCC2C(=O)O)c(C)o1 (configuration not stated) | -1.9 | . | . | 102 | -1 | i | 1.1
O=C(NC(=S)NCCN1CCOCC1)c1ccc(Cl)cc1 | -2.0 | -62 | 49 | 74 | 2 | i | 1
COc1ccc(/C=C2\SC(=O)N(CC(=O)NNC(=O)c3ccccc3O)C2=O)cc1 | -0.2 | 17 | 82 | 115 | -5 | i | 1.1
CCOc1ccc(N/C(N)=N/c2nc(CSc3nnnn3-c3ccccc3)cc(=O)[nH]2)cc1 | . | . | . | 101 | . | i | 1.1
COc1ncnc2c1oc1nc(C)c3c(c12)CC(C)(C)OC3 | . | . | . | 99 | . | i | 0.87
CN(CCOC(=O)c1cccc(Br)c1)C(C)(C)C | -1.1 | 8 | 72 | 113 | -7 | . | .
CCOC(=O)c1[nH]c2ccccc2c1N=CN(CC)CC | -3.5 | . | . | 112 | 0 | i | 0.94
Cc1ccc(-n2cc(CN3CCNC(=O)CC3)c(-c3ccc(F)cc3)n2)cc1 | . | . | . | 101 | . | i | 0.85
N#Cc1c(-c2ccc(C(F)(F)F)cc2)cc(-c2ccccc2)[nH]c1=S | -1.0 | 52 | 128 | 104 | -13 | i | 0.86
Cc1ccc(-c2noc(CSc3ccccc3)n2)cc1 | -2.4 | 57 | 173 | 115 | 2 | i | 1.1
COc1ccc2[nH]cc(CCNC(=S)NC3CCCC3)c2c1 | . | . | . | 97 | -3 | i | 0.89

For convenience, some entries already given:
SMILES | GALR2 agonist | Insulin prom inh | Insulin prom inh cell count | RGS16-Gao | PKD1 inh | HSV replic up | HSV replic up primary fold
N#Cc1c(-c2ccc(C(F)(F)F)cc2)cc(-c2ccccc2)[nH]c1=S | -1.0 | 52 | 128 | 104 | -13 | i | 0.86
Cc1ccc(-c2noc(CSc3ccccc3)n2)cc1 | -2.4 | 57 | 173 | 115 | 2 | i | 1.1
COc1ccc2[nH]cc(CCNC(=S)NC3CCCC3)c2c1 | . | . | . | 97 | -3 | i | 0.89

(listing goes on)
SMILES | GALR2 agonist | Insulin prom inh | Insulin prom inh cell count | RGS16-Gao | PKD1 inh | HSV replic up | HSV replic up primary fold
Cc1ccc2nc(C3CCCN3Cc3nc(CCC(C)C)no3)[nH]c2c1 (configuration not stated) | . | . | . | 100 | 1 | i | 1.1
O=C(CN1CCc2ccccc21)NN1CC(=O)N(c2ccccc2)CC1=O | . | . | . | 102 | . | i | 1.1
CCCCN1CCc2c([nH]c3ccc(C)cc23)C1=O | -1.2 | . | . | 97 | -4 | i | 0.8
C=CCc1cccc(/C=N/NC(=O)CCC(=O)Nc2ccc(F)cc2)c1O | -0.4 | -19 | 86 | 114 | -4 | i | 0.78
CN(C)S(=O)(=O)c1cccc(-c2csc(N/N=C/c3ccco3)n2)c1 | . | . | . | 98 | . | i | 1.1
Cc1cc([N+](=O)[O-])nn1CC(=O)Nc1cc(F)ccc1F | . | . | . | 97 | -6 | i | 0.97
O=C(COC(=O)[C@H](Cc1ccccc1)NC(=O)c1ccco1)NC(c1ccccc1)c1ccccc1 | -0.6 | 13 | 98 | 97 | -4 | i | 0.78
CCC(CC)C(=O)Nc1nnc(SCC(=O)NC(C)(C)C)s1 | . | 0 | 112 | 108 | -8 | i | 0.91
Cc1cc(=O)oc(C)c1C(=O)OCC(=O)c1ccc(Br)cc1 | -0.6 | . | . | 98 | -5 | i | 0.94
Cc1cc(Cl)ccc1OCC(=O)N/N=C1\CC2C=CCC12 (configuration not stated) | -0.1 | . | . | 105 | -2 | i | 1
COc1cc(/C=N/NC(=O)c2nonc2N)cc(OC)c1OC | . | . | . | 105 | -1 | i | 0.95
c1ccc(-c2ccccc2OCCOCCN2CCCCC2)cc1 | -1.2 | -23 | 126 | 110 | -6 | i | 0.83
CCc1cc(=O)oc2c(C)c(OCC(=O)N3CCCc4ccccc43)ccc12 | -3.1 | 11 | 53 | 565 | 1 | i | 0.97
O=c1oc2ccccc2c(N2CCC(c3ccccc3)CC2)c1[N+](=O)[O-] | . | . | . | 99 | -6 | i | 0.86
CCOc1ccccc1Nc1nnc(SCC(=O)Nc2ccc3[nH]c(=O)[nH]c3c2)s1 | . | . | . | 97 | 3 | i | 0.97
Cc1cc(C(=O)NCC(=O)OCC(=O)Nc2ccc(OC(F)F)cc2)ccc1[N+](=O)[O-] | -0.8 | 19 | 124 | 105 | 7 | i | 0.91
Cc1c(NC(=O)Nc2cccs2)cccc1[N+](=O)[O-] | . | 25 | 152 | 107 | -6 | i | 0.95
COc1cc(C(C)=O)ccc1Oc1ncnc2c1cnn2-c1cccc(Cl)c1 | 0.3 | 39 | 120 | 52 | -10 | i | 0.93
CCc1ccc(Nc2ncnc3nc[nH]c23)cc1 | . | . | . | 99 | . | i | 0.75
Fc1cccc(NC(=S)NCCc2ccccc2)c1 | -1.2 | -38 | 89 | 103 | 9 | i | 1
O=C(Nc1cccc(Cl)c1)Nc1cc(S(=O)(=O)N2CCCCC2)ccc1Cl | -1.0 | . | . | 101 | 2 | i | 0.73
Cc1nc2ccc(S(=O)(=O)NCC(=O)N3CCCCC3)cc2s1 | -2.8 | 40 | 106 | 106 | -2 | i | 0.99
CCCCCCC1C(C#N)=C(N)OC2=C1C(=O)CCC2 (configuration not stated) | -2.5 | . | . | 102 | -14 | i | 0.94
CC#CCN(CC#CC)S(=O)(=O)c1ccc(-n2cnnn2)c(OC)c1 | -1.4 | -42 | 75 | 99 | -9 | i | 0.97
COc1ccc(OC)c(NC(=O)Cn2c(C)nc3ccccc3c2=O)c1 | . | 15 | 118 | 102 | 2 | i | 0.98

Compound activity (PubChem)
